MARV entry inh: Marburg virus entry inhibition. 300,000 tested, 1.8% active. Marburg virus pseudotyped entry inhibition, cell reporter; control for the full effect not named in the record; about a third of the inactives were read at about 46 µM. Potency, µM (series often up to 37.8 µM), for inactives: at the highest dose activity change, negative = inhibition, actives largely listed as inhibitors; active = well fitted inhibition curve with a large enough effect; inconclusive = small, poorly fitted or top-dose-only effect, or effect the other way; inactive = flat fitted curve, though single readings scatter; tested in HEK293 cells; about a fifth of its hits are not listed in these tables; further: on the % scale 0 is the no-effect control and ±100 the full control effect; luciferase read-out
2A StopGo: FMDV 2A StopGo reporter, luciferase signal; 410,000 tested, 1.2% active; human cells with a luciferase reporter of 2A StopGo recoding; control for the full effect not named in the record; AID 1159524; Potency, µM (top dose mostly 57.9 µM), inactives show at the highest dose signal change, negative = less light; active = well fitted falling curve with a large enough effect; inconclusive = small, poorly fitted or top-dose-only effect; inactive = no such curve, though single readings can be large or run the other way; tested in HEK293T cells; further: on the % scale 0 is the no-effect control and ±100 the full control effect; nearly all actives have a fitted effect of over 45% in size; luciferase light after 4 h
SARS PLpro yeast: SARS-CoV PLP inhibition in yeast; S. cerevisiae expressing SARS-CoV PLpro, growth rescue; control for the full effect not named in the record; Potency, µM (doses to about 32.9 µM), without a hit: at the top dose activity, positive = growth rescue; 330,000 tested, 0.19% active; AID 485353; active means well fitted rising curve with a large enough effect; inconclusive means small, poorly fitted or top-dose-only effect; inactive means no such curve, though single readings can be large or run the other way; further: 0% is about no effect; nearly all actives have a fitted effect of over 55% in size; growth read by luminescence after 48 h
Cruzain Triton: blocks cruzain activity in presence of Triton detergent. purified cruzain, Z-FR-AMC fluorescence, 0.01% Triton. P25779. Potency, µM, for inactives: max response, negative = inhibition, most hits filed as inhibitors. 200,000 tested, 0.43% active;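 further: plate controls were neutral wells for no effect and buffer without enzyme for full effect; nearly all actives have a fitted effect of over 40% in size; top concentration of the series not given in the record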
Target sequence (P25779 123-467 limits assumed): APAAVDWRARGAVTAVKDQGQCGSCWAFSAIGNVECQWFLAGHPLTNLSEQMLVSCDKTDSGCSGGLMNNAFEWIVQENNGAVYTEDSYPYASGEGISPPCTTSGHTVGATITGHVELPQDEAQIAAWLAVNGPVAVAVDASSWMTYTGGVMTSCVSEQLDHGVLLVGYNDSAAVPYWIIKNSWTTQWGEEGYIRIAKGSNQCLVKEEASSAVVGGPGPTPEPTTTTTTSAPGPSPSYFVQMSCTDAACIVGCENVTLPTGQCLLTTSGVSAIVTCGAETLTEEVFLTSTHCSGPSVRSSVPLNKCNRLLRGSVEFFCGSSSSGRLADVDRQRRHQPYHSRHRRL
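Sodium acetate buffer (100 mM, pH 5.5) containing 5 mM DTT and 0.01% Triton X-100 hosted 1.5 nM cruzain and test compound for 15 min at room temperature. Cleavage of 2 uM Z-FR-AMC was then tracked by fluorescence.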
RE007 growth inh: less growth of the S. pombe RE007 Vpr strain; 360,000 tested, 0.21% active; Potency, µM (titrated, usually from 92.2 µM), inactives show top-dose activity change, negative = less growth; S. pombe RE007 Vpr strain, BacTiter-Glo ATP luminescence, 24 h; control for the full effect not named in the record; AID 651644; active = well fitted falling curve with a large enough effect; inconclusive = small, poorly fitted or top-dose-only effect; inactive = no such curve, though single readings can be large or run the other way;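 further: on the % scale 0 is the no-effect control and ±100 the full control effect; nearly all actives have a fitted effect of over 50% in size; the assay follows cell death caused by Vpr and the record does not say whether a fall means rescue or toxicity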
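Fission yeast RE007 carrying one integrated HIV-1 vpr copy, seeded at OD 0.01 in PMG+AL medium with 23 nL pinned compound. Grown 24 h at 30 degrees; viability read by BacTiter-Glo luminescence after 5 min.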
Cruzain inh noDet: blocks cruzain activity in detergent-free assay; purified cruzain, Z-FR-AMC fluorescence, no detergent; Potency, µM, inactives show max response, negative = inhibition, usual class: inhibitors; 200,000 tested, 2.3% active; AID 1476;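 further: plate controls were enzyme without inhibitor for no effect and buffer without enzyme for full effect; nearly all actives have a fitted effect of over 40% in size; top concentration of the series not given in the record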
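Detergent-free condition (0.00005% Triton X-100) in acetate buffer pH 5.5 with DTT. 1.5 nM enzyme and compound were pre-mixed 15 min, then 2 uM Z-FR-AMC substrate added; reaction progress from fluorescence change between first and third reads (60 s).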
NS1 function inh: influenza NS1 inhibition; S. cerevisiae slowed by influenza A NS1, growth recovery by OD600; Potency, µM (titrated, usually from 46.1 µM), inactives show top-dose activity, positive = more growth; 270,000 tested, 0.4% active; AID 2326; active means well fitted rising curve with a large enough effect; inconclusive means small, poorly fitted or top-dose-only effect; inactive means no such curve, though single readings can be large or run the other way; further: nearly all actives have a fitted effect of over 50% in size
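OD600 was taken as the measure of yeast growth restored by compound in an NS1-expressing S. cerevisiae strain. Cells had been washed out of glucose medium and diluted 1:100 into galactose -URA medium, pH 6.0.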
LASV entry inh: Lassa virus entry inhibition; Lassa virus pseudotype entry inhibition, cell reporter; control for the full effect not named in the record; Potency, µM (titrated, usually from 37.9 µM), inactives show at the top dose activity change, negative = inhibition, most hits filed as inhibitors; 300,000 tested, 1.2% active; active means well fitted inhibition curve with a large enough effect; inconclusive means small, poorly fitted or top-dose-only effect, or effect the other way; inactive means flat fitted curve, though single readings scatter; tested in HEK293 cells; further: on the % scale 0 is the no-effect control and ±100 the full control effect; nearly all actives have a fitted effect of over 50% in size; luciferase read-out
* marks the source's active call; other numbers are inactive results; ? = inconclusive; . = no result given; [ ] = dose if it differs, or a comment. Unless noted, the call rests on the fitted dose curve; in most records, active means well fitted curve in the direction sought with a large enough effect; inconclusive means small, poorly fitted or top-dose-only effect, or another doubt; inactive means no such curve, though single readings can be large; an effect the other way counts as inactive or inconclusive. Potency means the concentration at half of the fitted maximal effect.

1. O=C(COC(=O)c1nc(-c2ccccc2)n(-c2cccc(C(F)(F)F)c2)n1)NCc1cccs1
2. O=C(Nc1ccc(N2CCOCC2)cc1)c1cc2ccccc2o1
3. Cc1cc(=O)n2nc(N3CCCC3C(=O)NCc3ccccn3)sc2n1 (centres undefined)
4. COc1cccc(C(=O)Nc2nc3nc(-c4ccccc4)cc(=O)n3[nH]2)c1
5. COc1ccc(N2CCN(C(=S)Nc3ccccc3OC)CC2)cc1
6. COC(=O)Nc1c(C)nn(Cc2ccccc2C)c1C
7. Cc1cc(=O)[nH]c(N2CCOCC2)n1
8. O=C(CSc1ccc(Br)cc1)N1CCOCC1
9. COC(=O)c1ccc(N2C(=O)CC(NCc3ccccc3)C2=O)cc1 (centres undefined)
10. COc1c(C)cc(C(=O)C2CCCN(C(=O)c3cc(C)on3)C2)cc1C (centres undefined)

entry no. | 1 | 2 | 3 | 4 | 5 | 6 | 7 | 8 | 9 | 10
MARV entry inh | ? | ? | 2% | -10%[46.1 µM] | 3% | 12% | 2%[46.1 µM] | ? | 23% | ?
2A StopGo | -10% | -15% | 4% | -8% | -11% | -19% | -6% | 19% | -4% | ?
SARS PLpro yeast | -2% | -5% | -4% | . | 1% | -6% | 0% | 1% | -25% | ?
Cruzain Triton | -6.9% | -0.1% | 1.3% | -4.8% | . | 4.4% | . | . | -1.4% | .
RE007 growth inh | 2% | -2% | -9% | . | 16% | -13% | -1% | 16% | -5% | -5%
Cruzain inh noDet | ? | -18% | -4% | -2% | . | -9% | . | . | -9% | .
NS1 function inh | -7% | 0% | 1% | . | 19% | 3% | 3% | 2% | -8% | -13%
LASV entry inh | 4% | -1% | 4% | 16%[46.1 µM] | 8% | -2% | 16% | 24%[46.1 µM] | 8% | -30%[46.1 µM]

Continued, starting with the last four of the part before.
7. Cc1cc(=O)[nH]c(N2CCOCC2)n1
8. O=C(CSc1ccc(Br)cc1)N1CCOCC1
9. COC(=O)c1ccc(N2C(=O)CC(NCc3ccccc3)C2=O)cc1 (centres undefined)
10. COc1c(C)cc(C(=O)C2CCCN(C(=O)c3cc(C)on3)C2)cc1C (centres undefined)
11. COC(=O)c1c(SCC(=O)Nc2ccc(C)cc2)nc(=O)[nH]c1C
12. CSCCC(NC(=O)c1ccc(Cl)cc1)C(=O)OCC(=O)Nc1cc(Cl)ccc1C#N (centres undefined)
13. Cc1csc(NC(=O)c2ccoc2C)n1
14. COc1ccc(CN2CCC(n3nccc3NC(=O)CCc3ccccc3)CC2)c(C)c1C
15. CC(=O)N/C(=N\c1nc(C)cc(C)n1)Nc1ccc(Cl)cc1Cl
16. CCCc1n[nH]c2c1/C(=N/O)CC(c1ccccc1)C2 (centres undefined)
17. CC(C)CC(=O)Nc1ccc(C(=O)COC(=O)CN2C(=O)NC3(CCCCC3C)C2=O)cc1 (centres undefined)
18. CCc1ccc2oc(-c3cccc(NC(=O)c4cc5ccccc5o4)c3)nc2c1
19. CC1CCN(C(C(=O)O)c2ccccc2)CC1 (centres undefined)
20. O=C(O)c1ccc(NC(=O)c2ccccc2NC(=O)c2cccc(Br)c2)cc1

entry no. | 7 | 8 | 9 | 10 | 11 | 12 | 13 | 14 | 15 | 16 | 17 | 18 | 19 | 20
MARV entry inh | 2%[46.1 µM] | ? | 23% | ? | 27%[46.1 µM] | ? | ? | . | 3% | ? | 25% | . | 5%[46.1 µM] | 16%
2A StopGo | -6% | 19% | -4% | ? | -10% | -19% | 32%[activator] | ? | -9% | -25% | ? | 37%[activator] | -5% | 8%
SARS PLpro yeast | 0% | 1% | -25% | ? | 1% | -38% | -4% | -5% | 0% | 0% | 2% | . | -4% | 1%
Cruzain Triton | . | . | -1.4% | . | . | 25µM* | 3.1% | . | . | 1.8% | . | -1.7% | . | .
RE007 growth inh | -1% | 16% | -5% | -5% | 7% | -1% | ? | -8% | -6% | -5% | 7% | . | 7% | -15%
Cruzain inh noDet | . | . | -9% | . | . | -29% | -4% | . | . | -9% | . | -5% | . | .
NS1 function inh | 3% | 2% | -8% | -13% | . | 20% | -3% | -17% | 3% | -7% | . | . | . | -8%
LASV entry inh | 16% | 24%[46.1 µM] | 8% | -30%[46.1 µM] | 16% | -5% | ? | . | 5% | -27% | 0% | 18%[46.1 µM] | 6% | 4%

21. COc1ccc(-c2cn3c(n2)sc2cc(C(=O)Nc4cccc(SC)c4)ccc23)cc1
22. CC(=O)Nc1ccc(NC(=O)CSc2nnc(-c3cc4ccccc4o3)n2C)cc1
23. CC(=O)c1ccc(OCc2cc(C(=O)N3CCC[C@H]3CO)no2)cc1
24. O=C(Nn1cnnc1)C(Sc1ccccc1)c1ccccc1 (centres undefined)
25. CCOc1ccc(S(=O)(=O)N2CCN(C(=O)CCC(=O)N3CCOCC3)CC2)cc1
26. Oc1ccc(CCN2CCCCC2)cc1
27. CCOC(=O)Cn1c(=O)n(CC2CCCO2)c2nc(-c3ccccc3Cl)nc(C(N)=O)c21 (centres undefined)
28. CC(C)COc1ccc(C2NC(=O)NC2=O)cc1 (centres undefined)
29. Cn1cc(-c2nnnn2-c2cccc(C(F)(F)F)c2)c(C(F)(F)F)n1
30. c1ccc(OCCOCCOc2ccccc2)cc1

entry no. | 21 | 22 | 23 | 24 | 25 | 26 | 27 | 28 | 29 | 30
MARV entry inh | . | 16%[46.1 µM] | . | -2% | 24% | 10%[46.1 µM] | . | 5% | 18% | 16%[46.1 µM]
2A StopGo | 21% | -2% | 11% | 0% | -8% | -1% | -8% | 22% | 20% | 8%
SARS PLpro yeast | . | 2% | 0% | 4% | 2% | . | . | ? | -11% | .
Cruzain Triton | -2.7% | . | . | 3.6% | . | . | -0.8% | 1.2% | -2.3% | .
RE007 growth inh | . | 3% | 5% | -2% | 4% | 8% | . | -8% | 1% | 2%
Cruzain inh noDet | 2% | . | . | 14% | . | . | 3% | 2% | 26% | .
NS1 function inh | . | 2% | 0% | -7% | . | . | . | 0% | -3% | .
LASV entry inh | ? | -19%[46.1 µM] | . | -10% | 9%[46.1 µM] | 23%[46.1 µM] | -23%[46.1 µM] | -7% | -8% | 2%[46.1 µM]

31. N#CC1c2ccccc2C=CN1C(=O)c1ccccc1 (centres undefined)
32. O=C(c1ccc2c(c1)OCO2)C1CCCN(C(=O)C2CCOCC2)C1 (centres undefined)
33. CCOc1ccc(N(CC(=O)NCc2ccccc2OC)S(C)(=O)=O)cc1
34. CC(Oc1ccc(-c2nccc(-c3ccccn3)n2)cc1)C(=O)NN (centres undefined)
35. CCc1ccc(-c2nc(SCC(=O)NC3CCS(=O)(=O)C3)n[nH]2)cc1 (centres undefined)
36. Cc1nc(C)c(-c2csc(Nc3ncccc3C)n2)s1
37. COc1ccccc1C(=O)C1CCCN(C(=O)CCC(=O)c2ccccc2)C1 (centres undefined)
38. COc1ccccc1C(=O)NC1(C(F)(F)F)C(=O)Nc2c1c(=O)[nH]c(=O)n2-c1ccccc1 (centres undefined)
39. CN(C)/C=C/C(=O)c1ccc(F)cc1
40. CN(C1CCS(=O)(=O)C1)S(=O)(=O)c1ccc(C2CCCCC2)cc1 (centres undefined)

entry no. | 31 | 32 | 33 | 34 | 35 | 36 | 37 | 38 | 39 | 40
MARV entry inh | -21% | -11%[46.1 µM] | 28% | 13% | 2% | . | -23%[46.1 µM] | 1%[46.1 µM] | 4% | -5%
2A StopGo | -5% | 10% | 66%[activator] | 3% | 33%[activator] | 3% | -14% | -6% | 1% | -29%
SARS PLpro yeast | -4% | 0% | 1% | -1% | 7% | -11% | 0% | . | -11% | 3%
Cruzain Triton | . | . | 3.4% | -1.0% | . | . | . | -1.9% | -1.2% | 1.6%
RE007 growth inh | -1% | -14% | 22% | 7% | -15% | -11% | ? | . | -15% | -6%
Cruzain inh noDet | . | . | 4% | -7% | . | . | . | 1% | -12% | 5%
NS1 function inh | -4% | 2% | -3% | ? | . | -31% | -3% | . | -36% | -4%
LASV entry inh | ? | 12%[46.1 µM] | ? | 9% | ? | . | ? | 16%[46.1 µM] | 7% | 6%

41. CCCS(=O)(=O)c1nc(S(=O)(=O)c2ccc(C)cc2)c(NCc2ccccc2)s1
42. CC(=O)c1sc(NC(=O)COc2ccccc2)nc1C
43. c1csc(CN2CCOCC2)c1
44. Cc1cc(C)nc(/N=C(\NC(=O)C(C)(C)C)Nc2ccc(F)cc2)n1
45. COc1cc(NC(=O)C2=C(N3CCOCC3)/C(=C/c3ccc(Cl)cc3)CC2)cc(OC)c1OC
46. O=[N+]([O-])c1ccccc1S(=O)(=O)Nc1cccc(-c2ccc3nncn3n2)c1
47. CCOC(=O)N1CCC(NC(=O)c2cc(C(=O)NC3CCCC3)ccc2CO)CC1
48. COc1ccc(C)cc1S(=O)(=O)NCCN1CCOCC1
49. CC(=O)c1cnc2nc(SCc3ccccc3C)nn2c1C
50. CCc1ccccc1NC(=O)CSc1nc(-c2ccccc2)nn1C(=O)c1cccc([N+](=O)[O-])c1
51. N/C(=N\OC(=O)c1ccco1)c1ccccn1
52. Cc1cccc(Oc2ccc(NC(=O)C3CC=CCC3C(=O)O)cc2)c1 (centres undefined)

entry no. | 41 | 42 | 43 | 44 | 45 | 46 | 47 | 48 | 49 | 50 | 51 | 52
MARV entry inh | . | 9%[46.1 µM] | ? | ? | 16µM* | -1%[46.1 µM] | -4% | -10% | ? | . | . | ?
2A StopGo | 17% | 53%[activator] | 15% | -12% | ? | 25% | 0% | 76%[activator] | 39%[activator] | . | 66%[activator] | ?
SARS PLpro yeast | . | -6% | -1% | 1% | -8% | -2% | 0% | -1% | -10% | -1% | -2% | 1%
Cruzain Triton | -4.6% | . | 2.4% | . | -11% | . | 4.7% | . | . | 0.2% | . | .
RE007 growth inh | . | 2% | 0% | -14% | ? | -14% | -2% | -21% | 8% | . | -7% | 1%
Cruzain inh noDet | -11% | . | 2% | . | ? | . | 5% | . | . | 0% | . | .
NS1 function inh | . | 5% | -1% | 5% | 10% | . | -3% | 4% | -18% | 8% | -4% | 5%
LASV entry inh | -25%[46.1 µM] | -16% | 5% | 21% | -18% | 5% | . | 6% | -1%[46.1 µM] | . | . | .

Random draw from the library; 4.5% or so of the library scored in one or more.
